Menin-MLL FL inh: qHTS Assay for Inhibitors Targeting the Menin-MLL Interaction in MLL Related Leukemias: Competition With Fluorescein Labeled MLL-derived Peptide | Fluorescence polarization, fluorescein-MLL peptide displacement from menin | FP activity change, % at 61.4 µM | 290,000 tested, under 10 active; inconclusive = falling polarisation curve, or a change in total fluorescence; inactive = total fluorescence flat and polarisation flat or rising; no compound was filed as active; the % refers to the polarisation; negative = inhibition;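 also: % of control where 0% means no effect; inhibitors lower the polarisation; unlabelled MLL peptide was the positive control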
TRPV1 PAM: HTS Assay for Compounds that Act as Potentiators of the Vanilloid Receptor 1 | Transient receptor potential cation channel subfamily V member 1 (Homo sapiens), Q8NER1 | TRPV1-expressing cells, Fluo-8 calcium influx, capsaicin EC20 potentiation; host cell line not named in the record; control for the full effect not named in the record | potentiation, % at 8.33 µM | hit rate 0.02% among 320,000; active means potentiation above 80%; inconclusive means 30% to 80%; inactive means below 30%; also: 0% is about no effect
Target sequence (Q8NER1 whole entry, looked up): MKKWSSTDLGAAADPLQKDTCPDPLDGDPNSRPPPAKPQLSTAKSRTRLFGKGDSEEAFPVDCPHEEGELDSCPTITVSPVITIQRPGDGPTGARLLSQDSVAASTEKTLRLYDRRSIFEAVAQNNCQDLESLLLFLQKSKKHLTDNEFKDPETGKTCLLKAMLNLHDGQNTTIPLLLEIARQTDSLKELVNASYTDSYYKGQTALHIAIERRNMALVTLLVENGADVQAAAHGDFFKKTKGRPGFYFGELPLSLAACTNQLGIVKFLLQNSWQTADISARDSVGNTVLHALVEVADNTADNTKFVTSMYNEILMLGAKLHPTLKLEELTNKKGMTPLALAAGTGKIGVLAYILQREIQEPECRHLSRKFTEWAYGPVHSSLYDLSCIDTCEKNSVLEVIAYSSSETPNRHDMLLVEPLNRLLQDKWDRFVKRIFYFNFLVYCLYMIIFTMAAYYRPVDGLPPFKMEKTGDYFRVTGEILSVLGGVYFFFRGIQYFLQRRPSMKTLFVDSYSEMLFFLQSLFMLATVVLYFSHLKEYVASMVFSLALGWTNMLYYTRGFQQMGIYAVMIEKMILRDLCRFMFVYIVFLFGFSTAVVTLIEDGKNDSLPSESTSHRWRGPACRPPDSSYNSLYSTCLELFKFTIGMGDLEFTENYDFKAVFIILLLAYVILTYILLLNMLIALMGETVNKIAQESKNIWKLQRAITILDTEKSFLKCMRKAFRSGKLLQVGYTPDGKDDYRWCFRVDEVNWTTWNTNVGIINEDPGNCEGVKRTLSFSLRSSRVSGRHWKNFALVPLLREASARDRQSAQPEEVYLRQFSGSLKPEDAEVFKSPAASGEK
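TRPV1-expressing cells were cultured overnight at 35.5C and loaded with Fluo-8 calcium dye for 40 to 90 min at room temperature. After a 10 s baseline, compound was added and calcium influx was read kinetically for 3 min (ex 480/em 520 nm).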
TRPML1 blocker: qHTS for Inhibitors of the Human Mucolipin Transient Receptor Potential 1 (TRPML1) | hit rate 0.02% among 390,000 | TRPML1-inducible cells, Ca2+ dye fluorescence, FDSS; hits give low values; inhibition of EC80 agonist-evoked calcium signal | activity change, negative = inhibition, % (concentration not given with the values) | Mucolipin-1 (Homo sapiens), Q9GZU1; in the data active means activity change below about -50%; inconclusive means about -30% to -50%; inactive means above about -30%;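 also: stimulus is agonist 54-4 at its EC80 concentration; % is scaled to controls: 0 for no effect and ±100 for the full control effect; compound concentration not given in the record; the text of the record puts the active cut at -80%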
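Tet-induced TRPML1-DL cells loaded with Ca8 no-wash calcium dye were read kinetically on FDSS. Compound addition was followed by EC80 agonist 54-4 (4 uM final); inhibition was read over 110 s.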
gsp agonist: qHTS for Agonist of gsp, the Etiologic Mutation Responsible for Fibrous Dysplasia/McCune-Albright Syndrome: qHTS | AID 624287, 2012 | hit rate 0.13% among 340,000 | Potency, µM (doses to about 76.9 µM), inactives show top-dose activation (cAMP increase), usual class: activators | gsp mutant cells, cAMP HTRF, 30 min; control for the full effect not named in the record; active = well fitted activation curve with a large enough effect; inconclusive = small, poorly fitted or top-dose-only effect, or another doubt; inactive = no such curve, though single readings can be large or run the other way; cell line not stated here;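 also: phosphodiesterase inhibitor Ro 20-1724 added with compounds to block cAMP breakdown; potency is read from the fitted curve at half-maximal effect; nearly all actives have a fitted effect of over 60% in size; about a fifth of the inactives were tested at one dose only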
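Cells in DMEM/10% FBS with G418 were pretreated with compounds in DMSO plus […] (300 uM stock) for 30 min at 37C. cAMP was measured by HTRF (cAMP-d2 plus anti-cAMP antibody-K) after 30 min at room temperature.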
Sfp inh: qHTS Assay for Inhibitors of Bacillus subtilis Sfp phosphopantetheinyl transferase (PPTase); hit rate 3.5% among 310,000; Potency, µM, for the others: max response, negative = inhibition, usual class: inhibitors; Biochemical Sfp PPTase activity, qHTS; active = well fitted inhibition curve with a large enough effect; inconclusive = small, poorly fitted or top-dose-only effect, or another doubt; inactive = no such curve, though single readings can be large or run the other way;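 also: the enzyme is Sfp with the accession as filed and its product quenches rhodamine fluorescence; potency is read from the fitted curve at half-maximal effect; 0% = enzyme reaction without inhibitor and -100% = no enzyme wells; top concentration of the series not given in the record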
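Step 1, compound plus 15 nM Sfp-PPTase, 15 min, room temperature. Step 2, add rhodamine-CoA (5 uM) and BHQ-2-YbbR (12.5 uM). Step 3, read 525/598 nm fluorescence at 0 and 30 min.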
ClpP mod: qHTS Assay for Activators of ClpP. hit rate 1.9% among 340,000. purified B. subtilis ClpP, FRET peptide cleavage, 20 min. ATP-dependent Clp protease proteolytic subunit (Bacillus subtilis (strain 168)), P80244. AID 651965, 2013. Potency, µM (doses to about 57.5 µM), for the others: at the highest dose activity change, negative = active; active = well fitted falling curve with a large enough effect; inconclusive = small, poorly fitted or top-dose-only effect; inactive = no such curve, though single readings can be large or run the other way; also: potency is read from the fitted curve at half-maximal effect; the source files actives as falling curves though it sought activators and does not explain the sign; nearly all actives have a fitted effect of over 65% in size; many hits overshoot -100%
Target sequence (P80244 whole entry, looked up): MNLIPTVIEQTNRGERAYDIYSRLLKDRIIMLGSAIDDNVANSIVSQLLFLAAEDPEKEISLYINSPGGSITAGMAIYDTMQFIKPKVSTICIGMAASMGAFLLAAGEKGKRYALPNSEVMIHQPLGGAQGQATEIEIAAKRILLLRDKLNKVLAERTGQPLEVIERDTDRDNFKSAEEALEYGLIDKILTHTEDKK
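Buffer: 100 mM Tris/HCl pH8, 100 mM KCl, 0.05% low protease BSA, 2.5% glycerol, 0.01% Tween-20. ClpP 10 microg/mL final; 20 min RT; delta FRET normalized to ADEP and DMSO controls.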
gsp antagonist: qHTS for Antagonists of gsp, the Etiologic Mutation Responsible for Fibrous Dysplasia/McCune-Albright Syndrome: qHTS; gsp-mutant cells, cAMP HTRF, 30 min; control for the full effect not named in the record; Potency, µM (titrated, usually from 76.9 µM), for inactives: at the top dose activity change, negative = inhibition, most hits filed as inhibitors; hit rate 0.4% among 340,000; active = falling curve of any shape with a large fitted effect; inconclusive = falling curve, mostly with a smaller effect; inactive = flat or rising curve; cell line not stated here;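 also: intracellular cAMP measured with PDE inhibitor Ro 20-1724 present during compound exposure; potency is read from the fitted curve at half-maximal effect; % is scaled to controls: 0 for no effect and ±100 for the full control effect; nearly all actives have a fitted effect of over 65% in size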
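HTRF cAMP read-out (cAMP-d2 plus anti-cAMP antibody-K in lysis buffer, 30 min RT). Before lysis, cells are exposed to compounds with […] for 30 min at 37C in DPBS containing Ca/Mg, BSA and Tween 20.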
Numbers without * were called inactive; ? = inconclusive; / = not tested or not shown; & = joins results of further samples; [ ] = dose if it differs, or a comment.

SMILES	Menin-MLL FL inh	TRPV1 PAM	TRPML1 blocker	gsp agonist	Sfp inh	ClpP mod	gsp antagonist
COc1ccc(N2Cc3cccc(C(=O)N4CCN(C(=O)c5ccco5)CC4)c3C2=O)cc1	7.5	/	39.0	-94.3%[inhibitor]	?	0.5%	1.7%
Cc1cc(C(=O)N/N=C\C(Br)=C\c2ccccc2)c(C)o1	0.8	-16.8	-1.3	12.4%[15.4 µM]	?	/	-19.0%
COc1ccc(NS(=O)(=O)c2cc(NC(=O)c3cnc(C)cn3)ccc2N2CCCCC2)cc1	5.4	-3.2	44.8	-9.3%	-6.1%	-3.7%	-11.0%
Cc1c(NC(=O)C(C)OC(=O)c2ncc(Cl)c(Cl)c2Cl)c(=O)n(-c2ccccc2)n1C (centres undefined)	/	5.9	-18.6	1.2%	/	-1.8%	-10.3%
Cc1ccc(S(=O)(=O)NCC(=O)OCC(=O)c2ccc(Br)s2)cc1	6.2	8.7	-9.1	?	-6.1%	-2.3%	22.5%
O=C(CSc1nncn1-c1cccnc1)Nc1cccc(C(F)(F)F)c1	1.5	15.1	15.0	1.3%[15.4 µM]	6.8%	0.8%	10.2%
Cc1cc2ccccn2c1C(=O)c1ccc(S(=O)(=O)N(C)C)cc1	0.4	-3.3	8.1	27.7%	4.2%	0.7%	-27.4%
COc1ccccc1S(=O)(=O)CC(O)COc1ccccc1Cl (centres undefined)	-2.1	-10.1	-8.1	-51.2%[inhibitor]	-2.8%	1.0%	12.4%
COc1ccc(C(=O)NCc2cn3ccsc3n2)cc1OC	3.2	-7.2	-7.1	-61.3%[inhibitor]	-1.6%	-1.0%	14.1%
Cn1cnnc1SCC(=O)c1cc2ccccc2o1	8.5	4.6	-1.3	-1.2%	-6.2%	-1.2%	0.2%
CCC(=O)NC(Nc1sc2c(c1C(=O)OC)CCCC2)(C(F)(F)F)C(F)(F)F	-0.5	-3.0	-1.1	-41.6%[inhibitor]	23.8%	1.4%	13.5%
CS(=O)(=O)N1CCN(c2ccccc2[N+](=O)[O-])CC1	-0.4	3.3	-14.2	23.4%[15.4 µM]	-2.9%	/	3.2%
O=S(=O)(Cc1ccccc1)Nc1ccc(F)cc1	2.1	1.6	15.0	-25.4%[15.4 µM]	6.7%	/	10.1%
CC(=O)Nc1ccc(NC(=O)c2cccc3c2-c2ccccc2C3=O)cc1	-3.4	-7.8	1.9	-26.2%	1.7%	0.9%	-0.8%
CCCCC(=O)/C=C/n1c(=S)oc2ccccc21	3.9	-2.3	-7.0	26.2%	8.6%	/	-6.0%
COc1cc(NC(=O)N[C@@H](Cc2c[nH]c3ccccc23)C(=O)O)c(C(=O)O)cc1OC	-18.8	24.8	3.9	30.8%[15.4 µM]	-6.3%	0.2%	1.0%
COc1cc(/C=C(\C#N)C(=O)NCC2CCCO2)c([N+](=O)[O-])cc1OC (centres undefined)	-6.3	1.5	-2.3	4.5%	12.2%	-16.2%	-4.0%
Clc1ccccc1-c1nn2c(-c3ccccn3)nnc2s1	-1.0	-15.9	8.6	?	4.8%	-0.8%	9.0%
COC(=O)c1ccccc1NC1=C/C(=N\S(=O)(=O)c2cccs2)c2ccccc2C1=O	0.7	18.3	11.4&57.4	-66.5%&11.1%[inhibitor]	18.0%	-0.2%&0.0%	15.1%&4.8%
COC(=O)c1ccccc1OCCCN(C)C	1.6	-8.1	0.9	26.8%	?	-4.1%	7.7%
O=C(NCC1CCOCC1)c1cc(COc2ccc(F)cc2F)on1	/	-21.2	-8.3	?	4.6%	-1.2%	13.2%
CC1CCN(C(=O)C2CCN(C(=O)c3cc4sccc4n3Cc3ccc(F)cc3)CC2)CC1	-0.2	6.4	-8.0	-36.8%[inhibitor]	7.7%	-2.9%	?
O=C(COC(=O)c1ccc(F)cc1)NCC1COc2ccccc2O1 (centres undefined)	/	/	-5.2	?	/	-2.2%	15.1%
Cc1cc(C(C)(C)C)cc(C)c1S(=O)(=O)N1CC(=O)Nc2ccccc21	0.8	13.0	-1.1	-35.5%[15.4 µM]	-2.2%	/	-24.3%
COc1ccc(OC(C)C(=O)Nc2ccccc2F)cc1 (centres undefined)	-1.4	-24.2	-11.8	6.6%[15.4 µM]	11.0%	/	3.0%

Further entries
SMILES	Menin-MLL FL inh	TRPV1 PAM	TRPML1 blocker	gsp agonist	Sfp inh	ClpP mod	gsp antagonist
CC(C)c1csc(CN2CCN(Cc3ccccc3)C(CCO)C2)n1 (centres undefined)	4.0	-5.8	2.1	?	-3.8%	/	3.7%
COc1ccccc1CNC(=O)CCN1C(=O)c2ccccc2C1=O	?	9.9	-0.1	5.2%[15.4 µM]	11.1%	0.0%	12.8%
CCN(C(=O)COC(=O)c1n[nH]c2ccccc12)c1ccccc1	/	1.1	-13.5	1.2%	/	-10.3%	4.4%
O=C(NCC(c1cccnc1)N1CCN(c2ccccc2F)CC1)c1cccc(Cl)c1 (centres undefined)	2.7	-17.7	12.0	?	8.7%	-1.3%	-20.8%
Cc1ccc(C(=O)COC(=O)c2cn3ccccc3n2)cc1	-2.1	-0.1	-29.9	-0.3%	16.0%	2.4%	4.2%
COc1ccc2c(CC(=O)OCC(=O)NC(N)=O)coc2c1	3.5	-0.9	/	?	11.8%	-2.6%	10.4%
O=C(OCn1nnc2ccccc2c1=O)C12CC3CC(CC(O)(C3)C1)C2	-5.8	-1.9	0.7	-11.6%[15.4 µM]	10.4%	0.1%	2.2%
CCCCNc1nc2ccccc2nc1Cl	0.2	12.4	-15.5	-3.4%[15.4 µM]	-8.3%	/	9.7%
O=c1c([N+](=O)[O-])c[nH]c2ccccc12	2.9	?	9.7	-10.0%	-10.3%	/	5.6%
COC(=O)c1cc(Br)c(=O)n(-c2nccs2)c1	6.2	5.2	19.3	14.1µM*	-9.5%	-3.9%	12.3%
Cc1ccccc1OC(=O)C1C(c2ccccc2)C(C(=O)O)C1c1ccccc1 (centres undefined)	0.8	1.6	4.0	-40.7%[inhibitor]	23.3%	-1.2%	8.9%
COc1cc(C)nc(Oc2ccc(OCCOc3ccc(C)cc3)nn2)n1	5.0	10.1	8.5	-4.3%	-1.7%	1.4%	7.7%
COc1ccc(CNC(=O)CC2C[C@H](C(=O)N3CCOCC3)[C@@]3(CCC4CCCC4)c4[nH]c5ccccc5c4CCN3C2=O)cc1OC (some centres undefined)	/	/	1.2	/	/	-0.1%	-28.7%
O=S(=O)(c1ccc(Br)cc1Cl)N1CCCN(c2ccc(C(F)(F)F)cn2)CC1	/	/	37.4	-62.2%[inhibitor]	/	-2.8%	-1.3%
Cn1c(=O)c2sccc2n2c(CCCC(=O)NCc3ccco3)nnc12	-0.8	-6.3	-11.2	?	1.9%	-0.1%	5.9%
CCOc1ccc(C(=O)N2CCC(C(=O)c3ccc4c(c3)OCCO4)CC2)cc1	-0.1	-10.7	7.5	-2.3%	4.4%	-12.9%	-27.2%
O=C(N/N=C(\Cc1ncc[nH]1)c1ccccc1)c1cccnc1	-0.9	20.1	44.4	-1.1%[15.4 µM]	0.6%	/	-3.0%
CCCCCCNS(=O)(=O)c1ccc(OC)c(OC)c1	2.6	-6.0	7.8	-70.1%[inhibitor]	11.4%	-1.0%	-20.5%
O=C(c1cccc(C(F)(F)F)c1)C1CCCN(Cc2ccc(OCCO)cc2)C1 (centres undefined)	-3.3	0.9	-14.1	20.6%[15.4 µM]	16.7%	/	3.2%
COc1ccc(Cc2nnc(SC(C)C(=O)Nc3ccc(F)cc3Cl)o2)cc1 (centres undefined)	/	5.3	-0.5	-4.3%	/	-5.5%	8.9%
Cc1ccc(Sc2ccc([N+](=O)[O-])cc2[N+](=O)[O-])nc1	5.5	-2.6	12.1	-9.5%[15.4 µM]	-3.3%	/	6.4%
Cc1ccccc1CN1CCNC(=O)C1CC(=O)NCCN1CCCCC1=O (centres undefined)	/	0.9	-10.4	23.1%	14.0%	-1.6%	2.2%
CN1CCN(CC#CCC(O)(c2ccccc2)C2CCCC2)CC1 (centres undefined)	2.4	-30.8	-8.4	26.5%	2.7%	2.9%	-2.9%
CC(=O)c1c(N2CCN(C)CC2)[nH]c(-c2ccccc2)nc1=S	-1.1	-2.6	-1.6	-15.8%	-17.6%	-0.9%	19.9%
CN1CCc2cc(Cl)c(O)cc2[C@@H](c2ccccc2)C1	?	2.8	17.7	/	13.6%&-0.7%&16.1%	-1.8%	-0.2%

(continued)
SMILES	Menin-MLL FL inh	TRPV1 PAM	TRPML1 blocker	gsp agonist	Sfp inh	ClpP mod	gsp antagonist
Cc1nnc(N2CCCCC2)c2ccccc12	2.8	-4.1	-6.7	0.0%	32.8%[activator]	-0.2%	3.8%
CCCc1c(C(=O)N/N=C/c2ccc3c(c2)OCO3)nnn1-c1nonc1N	/	/	21.4	-0.8%	/	4.0%	/
CCOCCCNC(=O)C1CCN(S(=O)(=O)c2c(C)noc2/C=C\c2ccc(OC)cc2)CC1	/	/	-8.6	2.3%	/	-1.6%	-0.5%
CC(NC(=O)c1cc(=O)[nH]c2ccccc12)c1ccccc1 (centres undefined)	-1.8	2.1	12.5	2.3%[15.4 µM]	19.4%	/	1.0%
Cc1ccc(S(=O)(=O)N2CCOCC2)cc1NC(=O)CSc1n[nH]c(N)n1	-1.4	-2.9	-8.0	4.7%	19.8%	-0.7%	9.0%
COc1cccc(CN2CCNC(=O)C2CC(=O)N(Cc2cnn(C)c2)C(C)C)c1 (centres undefined)	-4.3	6.5	-2.1	-49.7%[inhibitor]	1.3%	/	-0.7%
O=C(O)c1ccc(CN2CCOCC2)o1	-6.9	-3.9	-5.0	4.3%	7.3%	/	6.2%
